Sa growth inh: S. aureus growth inhibition; AID 720641; S. aureus RN4220 growth, OD600, 20 h, 42 °C; active compounds read low; relative growth, % (test concentration not listed); hit rate 0.53% among 170,000;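 active means growth at 42 °C up to 50% and 20 or more points under that at 30 °C, or under 10% at both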;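 further: 300 nL library stock went into each well; scaled to the means of positive and negative controls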
GIV Gai3 FP: inhibitors of GIV GBA-motif binding to rat Galpha-i3; P08753; Galpha-i3/FITC-GIV peptide fluorescence polarization, 90 min; active compounds read low; scaled: aluminum fluoride 0%, vehicle 100%; percent of control (FP), % (no concentration beside the values); hit rate 0.42% among 210,000; AID 1224905;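 active means replicate mean at 85% of control or lower, very high polarization wells dropped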;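 further: wells of about 15 µL received 100 nL stock; the first replicate is given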
Target sequence (P08753 whole entry, looked up): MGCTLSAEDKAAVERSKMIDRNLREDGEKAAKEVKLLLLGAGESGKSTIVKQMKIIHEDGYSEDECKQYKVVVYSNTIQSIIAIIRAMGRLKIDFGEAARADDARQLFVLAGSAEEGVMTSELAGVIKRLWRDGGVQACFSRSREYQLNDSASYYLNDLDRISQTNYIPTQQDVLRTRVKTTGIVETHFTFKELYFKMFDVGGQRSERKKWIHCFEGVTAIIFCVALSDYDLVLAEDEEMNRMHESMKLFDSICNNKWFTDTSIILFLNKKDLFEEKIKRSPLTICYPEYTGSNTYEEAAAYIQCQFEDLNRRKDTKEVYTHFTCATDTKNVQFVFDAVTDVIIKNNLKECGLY
HCMV UL50-53 inh: disrupts HCMV UL50-UL53 complex binding. HTRF UL50-UL53 interaction, normalized percent inhibition. inhibition, % (no concentration beside the values). AID 1918969. hit rate 0.15% among 190,000;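 active means both replicates at 50% or more, plus weaker picks with an unusually low signal ratio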;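 further: stock transfer was 100 nL into about 20 µL; 0% = negative control wells and 100% = wells with untagged competitor protein; inactives centre near -12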
Sa growth inh second temp: second read-out of Sa growth inh, no call of its own (marks repeat the call); relative growth, %; measured here: growth at 30 °C;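 optical density after 20 h as mean of two plates; 100% = untreated growth and lower means inhibition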
An asterisk follows results filed as active; & = joins results of further samples. Compounds were not picked by outcome; overall some 0.85% were active at least once.

O=C(CC(Cc1ccccc1)C(=O)O)Nc1cccc(C(F)(F)F)c1 (stereo not drawn) was read as Sa growth inh 105, GIV Gai3 FP 101 and Sa growth inh second temp 90.
`Cc1ccccc1CN1CCc2nc(Nc3ccc4c(c3)OCCO4)ncc2C1` gave Sa growth inh 111, GIV Gai3 FP 105 and Sa growth inh second temp 94.
`c1ccc2c(c1)nc(N1CCCC1)n2CCN1CCCCC1` gave Sa growth inh 112, HCMV UL50-53 inh -8 and Sa growth inh second temp 88.
Screening CCn1c(SCC(=O)c2cc(C)n(CC3CCCO3)c2C)nnc1-c1ccccc1 (stereo not drawn) returned Sa growth inh 78, HCMV UL50-53 inh -15 and Sa growth inh second temp 95.
`O=C(/C=C(\O)c1ccccc1)C(=O)Nc1ccccc1` gave Sa growth inh 102, GIV Gai3 FP 102 and Sa growth inh second temp 73.
CN(Cc1ccccc1)c1oc(COc2ccccc2F)nc1C#N was read as Sa growth inh 80, GIV Gai3 FP 101, HCMV UL50-53 inh -11 and Sa growth inh second temp 82.
COc1cc(C2CC(=O)Nc3nc(N)[nH]c(=O)c32)ccc1OCc1cccc(Cl)c1 (stereo not drawn) was read as GIV Gai3 FP 105 and HCMV UL50-53 inh 17.
COc1cc2c(c(OC)c1OC)-c1ccc(OC)c(=O)cc1[C@@H](NC(C)=O)CC2 was read as Sa growth inh 89, GIV Gai3 FP 102, HCMV UL50-53 inh -50&-48&-63 and Sa growth inh second temp 79.
Screening O=C(Nc1ccccc1F)c1nc(S(=O)(=O)Cc2ccccc2F)ncc1Cl returned Sa growth inh 30, GIV Gai3 FP 101, HCMV UL50-53 inh -12 and Sa growth inh second temp 26.
O=C(N/N=C/c1ccc(F)cc1)c1c(O)c2c([nH]c1=O)CCCC2 was read as Sa growth inh 106, GIV Gai3 FP 106, HCMV UL50-53 inh 11 and Sa growth inh second temp 103.
Screening Cc1cccc(C)c1OCC(=O)NCc1nnc(SCC(=O)NC2CCCCC2C)n1C (stereo not drawn) returned Sa growth inh 105, GIV Gai3 FP 106, HCMV UL50-53 inh -5 and Sa growth inh second temp 101.
`Cc1ccc(N2CCN(S(=O)(=O)c3nnc(NC(=O)c4ccccc4)s3)CC2)cc1` gave Sa growth inh 99, GIV Gai3 FP 104, HCMV UL50-53 inh -8 and Sa growth inh second temp 90.

Ordered by length of the SMILES (largest number first): part of the list above.
COc1cc2c(c(OC)c1OC)-c1ccc(OC)c(=O)cc1[C@@H](NC(C)=O)CC2 was read as Sa growth inh 89, GIV Gai3 FP 102, HCMV UL50-53 inh -50&-48&-63 and Sa growth inh second temp 79.
Screening CCn1c(SCC(=O)c2cc(C)n(CC3CCCO3)c2C)nnc1-c1ccccc1 (stereo not drawn) returned Sa growth inh 78, HCMV UL50-53 inh -15 and Sa growth inh second temp 95.
O=C(CC(Cc1ccccc1)C(=O)O)Nc1cccc(C(F)(F)F)c1 (stereo not drawn) was read as Sa growth inh 105, GIV Gai3 FP 101 and Sa growth inh second temp 90.
`O=C(/C=C(\O)c1ccccc1)C(=O)Nc1ccccc1` gave Sa growth inh 102, GIV Gai3 FP 102 and Sa growth inh second temp 73.
`c1ccc2c(c1)nc(N1CCCC1)n2CCN1CCCCC1` gave Sa growth inh 112, HCMV UL50-53 inh -8 and Sa growth inh second temp 88.

The listing continues:
Cc1ccc(C(=O)c2coc3ccc(O)c(CN(C)C)c23)cc1 was read as Sa growth inh 87, HCMV UL50-53 inh -2 and Sa growth inh second temp 91.
NS(=O)(=O)/C=C/c1ccccc1 was read as Sa growth inh 95, GIV Gai3 FP 102, HCMV UL50-53 inh -26 and Sa growth inh second temp 84.
For O=C(Nc1cccnc1)c1ccc(CSc2ccc(Cl)cc2)o1 the results were Sa growth inh 99, GIV Gai3 FP 102, HCMV UL50-53 inh -16 and Sa growth inh second temp 81.
Screening C#C[C@]1(O)CC[C@H]2[C@@H]3[C@H](C)CC4=C(CCC(=O)C4)[C@H]3CC[C@@]21C returned Sa growth inh 95&86, GIV Gai3 FP 96, HCMV UL50-53 inh -36&-20&-20 and Sa growth inh second temp 89&93.
Oc1c(C(c2ccccc2F)N2CCOCC2)sc2nc(-c3ccco3)nn12 (stereo not drawn) was read as Sa growth inh 113, GIV Gai3 FP 106 and Sa growth inh second temp 93.
`O=c1cc(-c2ccc(-c3ccccc3)cc2)[nH][nH]1` gave Sa growth inh 110, GIV Gai3 FP 98, HCMV UL50-53 inh -14 and Sa growth inh second temp 92.
CCN1CCCC1CNC(=S)NCc1ccccc1 (stereo not drawn) was read as Sa growth inh 87, HCMV UL50-53 inh -8 and Sa growth inh second temp 87.
Screening O=C(CN1C(=O)/C(=C\c2cccc(Cl)c2)Oc2ccccc21)NCCN1CCCC1 returned Sa growth inh 132, GIV Gai3 FP 112, HCMV UL50-53 inh -30 and Sa growth inh second temp 75.
COC(=O)c1ccc(-n2c(C)cc(C(=O)CSc3nncs3)c2C)cc1 was read as Sa growth inh 96, HCMV UL50-53 inh -12 and Sa growth inh second temp 78.
For Fc1ccc(C2Nc3c(Cl)cc(Cl)cc3C3C=CCC32)cc1 (stereo not drawn) the results were GIV Gai3 FP 104 and HCMV UL50-53 inh -20.
`Fc1ccc(CSc2nc(NCc3ccccc3)c3ccccc3n2)cc1` gave Sa growth inh 87, GIV Gai3 FP 104 and Sa growth inh second temp 75.
For CCc1ccc(Sc2cc(C(=O)NCC3CCCO3)c3ccccc3n2)cc1 (stereo not drawn) the results were Sa growth inh 140, GIV Gai3 FP 103 and Sa growth inh second temp 72.
Screening N#Cc1c(/N=C/c2c[nH]c3ccccc23)oc(-c2ccccc2)c1-c1ccccc1 returned Sa growth inh 91, GIV Gai3 FP 101, HCMV UL50-53 inh -22 and Sa growth inh second temp 86.
CC(CCc1ccccc1)NC(=O)c1n[nH]c2c1CCCC2 (stereo not drawn) was read as Sa growth inh 100, GIV Gai3 FP 103 and Sa growth inh second temp 86.
COc1cc(C2CC(=O)c3c([nH]c(C(=O)OC4CCCCC4)c3C)C2)cc(OC)c1OC (stereo not drawn) was read as Sa growth inh 106, GIV Gai3 FP 105 and Sa growth inh second temp 93.
For COc1ccc(OCC(=O)N2c3ccccc3Sc3ccccc32)cc1 the results were Sa growth inh 100, GIV Gai3 FP 104 and Sa growth inh second temp 84.
Screening CN(C(=O)C1CCC(CNS(=O)(=O)c2cccc3nsnc23)CC1)C1CCCCC1 (stereo not drawn) returned Sa growth inh 112, GIV Gai3 FP 97, HCMV UL50-53 inh -76 and Sa growth inh second temp 93.
Screening Cc1cc2oc(C(=O)Nc3cccnc3)cc(=O)c2cc1C returned GIV Gai3 FP 102 and HCMV UL50-53 inh 1.
For CCc1ccc(NC(=O)C(=O)NCC(c2cccnc2)N2CCc3ccccc3C2)cc1 (stereo not drawn) the results were Sa growth inh 106, GIV Gai3 FP 108, HCMV UL50-53 inh -11 and Sa growth inh second temp 89.
NCc1cn[nH]c1-c1ccccc1 was read as Sa growth inh 118, HCMV UL50-53 inh -6 and Sa growth inh second temp 108.
Screening CC1=C(C(=O)OCC2CCCCC2)C(c2ccccc2Cl)CC(=O)N1 (stereo not drawn) returned GIV Gai3 FP 99 and HCMV UL50-53 inh -23.
For CCN1CCN(C(=O)CC#N)CC1 the results were Sa growth inh 129, HCMV UL50-53 inh -33 and Sa growth inh second temp 91.
`COc1ccccc1NC(=O)CN1C(=O)CC(c2ccc(C)c(C)c2)=Nc2ccccc21` gave Sa growth inh 108, GIV Gai3 FP 101 and Sa growth inh second temp 93.
Screening Cc1ccc(NC(=O)CN(C)S(=O)(=O)c2ccc3[nH]c4c(c3c2)CCCC4)c(Cl)c1 returned Sa growth inh 114, GIV Gai3 FP 107 and Sa growth inh second temp 98.
For N=c1scc(-c2ccc(Cl)cc2)n1-c1ccccc1N1CCOCC1 the results were Sa growth inh 108, GIV Gai3 FP 101 and Sa growth inh second temp 80.
Screening N=c1n(CCN2CCCCC2)c2ccccc2n1CC(O)c1cccs1 (stereo not drawn) returned Sa growth inh 99, GIV Gai3 FP 99, HCMV UL50-53 inh -11 and Sa growth inh second temp 87.
`CCOc1cc(-c2cccc(Cl)c2)nc2ccc(C(=O)NCc3ccccc3OC)cc12` gave GIV Gai3 FP 106 and HCMV UL50-53 inh 0.
`Fc1ccccc1N1CCN(Cn2nc(-c3ccco3)oc2=S)CC1` gave Sa growth inh 97, HCMV UL50-53 inh -2 and Sa growth inh second temp 97.
Screening COc1ccccc1N1CCN(C(=O)c2nc(SC)ncc2Cl)CC1 returned Sa growth inh 103, GIV Gai3 FP 103, HCMV UL50-53 inh -22 and Sa growth inh second temp 84.
CCn1c(SCC(=O)OCc2nc3ccccc3c(=O)n2CC#N)nnc1-c1cccs1 was read as Sa growth inh 106, HCMV UL50-53 inh -5 and Sa growth inh second temp 94.
`O=C(CSc1ccc(S(=O)(=O)N2CCN(Cc3ccccc3)CC2)cn1)NC(=O)NC1CCCC1` gave Sa growth inh 100, HCMV UL50-53 inh -32 and Sa growth inh second temp 85.
Screening CCOC(=O)c1c(C)oc2nc(C)nc(N3CCc4cc(OC)c(OC)cc4C3C)c12 (stereo not drawn) returned Sa growth inh 94, GIV Gai3 FP 100, HCMV UL50-53 inh -20 and Sa growth inh second temp 75.
Screening Cc1ccccc1NC(=O)COC(=O)c1cccc2ccccc12 returned Sa growth inh 105, HCMV UL50-53 inh -23 and Sa growth inh second temp 83.
For O=C(CCCN1C(=O)CSc2ncccc21)NCc1ccccc1 the results were Sa growth inh 91, GIV Gai3 FP 103 and Sa growth inh second temp 79.
Screening CCCCn1c(SC(C)C(N)=O)nc2ccccc2c1=O (stereo not drawn) returned Sa growth inh 109, HCMV UL50-53 inh -12 and Sa growth inh second temp 97.
Screening CCc1cccc(C)c1NC(=O)Cn1c(=O)cc(C)c2c(C)nn(-c3cccc(F)c3)c21 returned Sa growth inh 84, GIV Gai3 FP 101 and Sa growth inh second temp 91.
Cc1ccc(S(=O)(=O)c2c(O)c3ccc(C(=O)NCc4ccccc4)cc3[nH]c2=O)cc1 was read as GIV Gai3 FP 107 and HCMV UL50-53 inh -14.
O=C(CCCOc1ccc(Cl)cc1Cl)Nc1nccs1 was read as Sa growth inh 98, HCMV UL50-53 inh -4 and Sa growth inh second temp 92.
Screening CC(=O)N1c2ccc(S(=O)(=O)N3CCOCC3)cc2CC1C(=O)N1CCc2ccccc2C1 (stereo not drawn) returned GIV Gai3 FP 98 and HCMV UL50-53 inh 3.
For Cc1nnsc1C(=O)Nc1sc2c(c1C(=O)NCC1CCCO1)CCCC2 (stereo not drawn) the results were GIV Gai3 FP 100 and HCMV UL50-53 inh -30.
For CN1CCC(OC(=O)c2cc3cc(Cl)cc(Cl)c3oc2=O)CC1 the results were Sa growth inh 99, GIV Gai3 FP 98, HCMV UL50-53 inh -97 and Sa growth inh second temp 73.
`Cc1cccc(NC(=O)/C(C#N)=C/c2ccco2)c1` gave Sa growth inh 106, GIV Gai3 FP 102, HCMV UL50-53 inh -40 and Sa growth inh second temp 91.
`COc1ccccc1NC(=O)c1c(NCc2sccc2C)sc2c1CCCC2` gave Sa growth inh 91, GIV Gai3 FP 103 and Sa growth inh second temp 94.
COC(=O)c1ccc(OC)c(Cn2c(=O)n(C)c(=O)c3ccccc32)c1 was read as Sa growth inh 91, GIV Gai3 FP 98, HCMV UL50-53 inh -6 and Sa growth inh second temp 81.
`Cc1cc(-c2nn(C)c(=O)c3ccccc23)cc(C)c1OCC(=O)NN` gave Sa growth inh 92, GIV Gai3 FP 100, HCMV UL50-53 inh -17 and Sa growth inh second temp 78.
For COc1ccc(-c2cc(C(=O)NN)n(CCC#N)n2)cc1 the results were Sa growth inh 89, HCMV UL50-53 inh 5 and Sa growth inh second temp 90.
For C[C@@H]1CCC[C@H](C)N1NC(=O)c1ccc(Cl)c(S(N)(=O)=O)c1 the results were Sa growth inh 91, GIV Gai3 FP 95, HCMV UL50-53 inh -48&-21 and Sa growth inh second temp 87.
Screening O=C(NCCCn1ccnc1)c1ccc(Br)c(S(=O)(=O)N2CCOCC2)c1 returned Sa growth inh 89, HCMV UL50-53 inh -23 and Sa growth inh second temp 90.
CNc1cc(F)nc(NC)n1 was read as GIV Gai3 FP 95 and HCMV UL50-53 inh 2.
Screening O=C1N(CN2CCOCC2)c2ccccc2C12OCCO2 returned Sa growth inh 86, GIV Gai3 FP 104, HCMV UL50-53 inh -54 and Sa growth inh second temp 77.
Screening CC(C)NC(=O)N1CCCC(c2cccc(C(=O)N3CCN(C4CCCCC4)CC3)c2)C1 (stereo not drawn) returned GIV Gai3 FP 109 and HCMV UL50-53 inh -26.
For COc1ccc(-c2noc(N3CCN(c4cccc(C)c4C)CC3)n2)cc1 the results were Sa growth inh 98, GIV Gai3 FP 101, HCMV UL50-53 inh -19 and Sa growth inh second temp 93.
Screening CCN=C1S/C(=C\c2cc3c(cc2Br)OCO3)C(=O)N1CC returned GIV Gai3 FP 108 and HCMV UL50-53 inh -24.
For Cc1ncc(-c2ccc(S(=O)(=O)N3CCc4ccccc4C3)cc2)o1 the results were GIV Gai3 FP 102 and HCMV UL50-53 inh -11.
`O=C(CSc1ncccc1C(=O)Nc1ccnn1Cc1cccnc1)Nc1ccc2c(c1)OCO2` gave Sa growth inh 106, HCMV UL50-53 inh 6 and Sa growth inh second temp 95.
`CCN(CC)c1ccc(-n2c3c(cc(C(=O)NC(C)=O)c2=O)C(=O)CC(C)(C)C3)cc1` gave GIV Gai3 FP 102 and HCMV UL50-53 inh 12.
Screening COc1ccc(CCNC(=O)c2ccc(NC(=O)CC#N)cc2)cc1OC returned Sa growth inh 100, HCMV UL50-53 inh -12 and Sa growth inh second temp 100.

Assay outcomes from PubChem.
